Compound activity deposited in PubChem BioAssay by Center for Chemical Genomics, University of Michigan.
HIV TAR-Tat – TAR RNA-Tat peptide displacers, HIV-1, primary screen, biochemical, FRET, FAM/TAMRA-labeled Tat | 100,000 compounds, 0.6% hits | z-score (no concentration beside the values) | AID 1259389, 2018 | HIV-1 TAR RNA, Tat peptide displacement FRET; hits give high values;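 further: score is relative to mean and SD of negative controls; some compounds called inactive have numbers as strong as hits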
CDC25B CDK2 inh – primary biochemical HTRF screen for blockers of M-phase inducer phosphatase 2 binding to CDK2/cyclin A; P30305+P24941; HTRF CDC25B-CDK2/CyclinA binding, anti-His/anti-Flag; hits give high values; z-score (test concentration not listed); 94,000 compounds, 0.72% hits;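 further: score is relative to mean and SD of negative controls; strong numbers were not always called active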
* hit, by the source's call; / = not tested or not shown.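 How the source made its calls: active means z-score from 3 up in half or more of its runs; inactive means the rest.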

SMILES	HIV TAR-Tat	CDC25B CDK2 inh
Cc1oc(C)c(S(=O)(=O)NCc2cccs2)c1C(=O)O	/	-2.1
CSc1ncc(Cl)c(C(=O)Nc2cccc(Cl)c2)n1	3.3	-0.24
CC(C)OCC(O)Cn1c2ccccc2c2ccccc21 (stereo not drawn)	/	-1.8
CCN(CC)c1ccc2nnc(CCC(=O)NCCC(C)C)n2n1	-0.11	/
COc1cc(C2NC(=O)NC(C)=C2C(=O)OCCSC)cc(Cl)c1O (stereo not drawn)	/	-2
COc1ccc(C(=O)CSC2=NS(=O)(=O)c3ccccc3N2)cc1	1.2	/
O=C(CSc1nc2ccncc2[nH]1)Nc1ccc(Br)cc1F	1.4	-1.1
CCOc1cc(C2/C(=C(/O)c3ccc(C)cc3)C(=O)C(=O)N2CC(C)C)ccc1O (stereo not drawn)	-0.53	-3.5
CCOC(=O)Cn1c(=O)n(-c2cccc(Cl)c2)c(=O)c2c3c(sc21)COC(C)(C)C3	2.1	-1.3
CC1CCC(NC(=O)c2cc3c(s2)CSC3)CC1 (stereo not drawn)	2.7	/
CCC(C)Nc1c(-c2ccccc2)c(=O)c1=O (stereo not drawn)	2.1	/
CCOc1ccc(NC(=O)NNC(=O)c2cc3ccccc3cc2O)cc1	/	-2.2
CSc1ccccc1CNC(=O)NC12CC3CC(CC(C3)C1)C2	/	0.67
N#Cc1c(N)oc(-c2ccccc2)c1-c1ccccc1	2.2	0.59
Nc1nnc(CCS(=O)(=O)c2ccc(Br)cc2)s1	/	0.06
COCCCN1CN(Cc2ccco2)CNC1=S	/	-1.6
Nc1nonc1C(=O)NCCNCc1ccc(F)cc1	0.69	-2
c1ccc(-n2ncc3c(N4CCOCC4)ncnc32)cc1	2.5	/
CC(C)COC(=O)CSc1nc(N2CCOCC2)c2c(c1C#N)CC(C)(C)OC2	-0.37	0.51
O=C(NC1CCCCC1)C1CCN(S(=O)(=O)c2ccc3[nH]c4c(c3c2)CCCCC4)CC1	0.53	/
CC(C)(C)OC(=O)Cn1ccc(=O)[nH]c1=O	/	0.02
C=CCNc1nc(N)c([N+](=O)[O-])c(N2CC(C)CC(C)C2)n1 (stereo not drawn)	1.4	/
NC(=O)c1nc(-c2ccc(F)c(Br)c2)nc2c1[nH]c(=O)n2-c1ccc(F)cc1	1.5	/
NC(=O)C1Cc2ccccc2CN1S(=O)(=O)c1cccs1 (stereo not drawn)	/	-0.56
Cc1cc(C2CCCN2C(=O)c2cc(-c3ccc(F)cc3)on2)no1 (stereo not drawn)	1.1	/
CC(C)(CC(=O)O)CC(=O)N1CCCN(c2nccc(C(F)(F)F)n2)CC1	/	0.39
C=CCn1c(COc2cc(C)ccc2C)nc2ccccc21	1.7	-1.5
CCOC(=O)C(CC)Sc1n[nH]c(=O)[nH]c1=O (stereo not drawn)	0.84	-0.36
Clc1ccc(Nc2ncnc3ccccc23)cc1	/	-0.83
Cc1ccc(-c2nc3cc(NS(=O)(=O)c4ccc(C)cc4)ccc3o2)cc1	/	-2.5
COC(=O)C(C)Sc1ncnc2sc(C)c(C)c12 (stereo not drawn)	/	0.8
COC(=O)c1sc(C(F)(F)F)c(-c2ccccc2)c1S(=O)(=O)Nc1ccccc1C	/	-0.23
Cc1cc2cc(CNS(=O)(=O)c3ccc(Cl)cc3)ccc2n1C	/	-0.34
Cc1ccc(-c2cnc(NCc3ccccc3Cl)n2C)cc1	0.55	0.4
CCN1CCc2c(sc(-n3cccc3)c2CNC(=O)Nc2ccc(Cl)cc2)C1	-7	/
CC(C)Oc1ccc(-c2nonc2NC(=O)COc2ccc(C(C)(C)C)cc2)cc1	2.2	-1.4

Two compounds drawn at random from the list so far, as already listed:
SMILES	HIV TAR-Tat	CDC25B CDK2 inh
COC(=O)C(C)Sc1ncnc2sc(C)c(C)c12 (stereo not drawn)	/	0.8
COC(=O)c1sc(C(F)(F)F)c(-c2ccccc2)c1S(=O)(=O)Nc1ccccc1C	/	-0.23

More results:
SMILES	HIV TAR-Tat	CDC25B CDK2 inh
O=C(O)C1CCN(c2ccc(Cl)nn2)CC1	0.94	1.2
CC1CCCC(NC(=O)C2CCN(S(=O)(=O)c3ccc4[nH]c(=O)ccc4c3)CC2)C1C (stereo not drawn)	-0.96	/
O=C(Nc1ccc2oc(-c3c(F)c(F)c(F)c(F)c3F)nc2c1)c1ccc(Br)o1	/	-2.6
COCCOC(=O)c1c(C)oc2c1cc(NS(=O)(=O)c1ccc(Br)cc1)c1ccccc12	/	1.8
Cc1c(/C=N/Nc2ccccn2)sc2ccccc12	/	-2.7
CCN1C(C(=O)c2ccccc2)=C(OC(=O)C(C)C)c2ccccc2S1(=O)=O	2.9	-0.61
C=CCn1c2ccccc2c2nnc(SCCN3CCOCC3)nc21	0.44	-1.1
CCOC(=O)CCCCCN1C(=O)S/C(=C/c2ccc(OC)cc2)C1=S	-4.2	0.56
O=C(CSc1nnc2ccc3ccccc3n12)NC1CCCCC1	-0.3	0.12
CCC1Cn2c(C(=O)NCc3c(C)nn(C)c3C)cc3c(Cl)ccc(c32)O1 (stereo not drawn)	0.31	/
COc1ccc(OCc2nn3cnnc3s2)cc1	-2.1	-0.82
c1ccc(CC2CCN(c3c4c(nc5ncnn35)CCC4)CC2)cc1	0.7	/
CN(C)S(=O)(=O)N(CC(=O)N1CCN(c2cccc(Cl)c2)CC1)c1ccccc1	0.3	-1.1
O=C(NC1CC1)c1cc(CN2CCOCC2)on1	0.59	/
Cn1ccc2cc(S(=O)(=O)N3CCC(C(=O)NCCN4CCCC4)CC3)ccc21	3.9	/
Cc1ccc(C2CC(c3ccc(Br)cc3)Nc3nnnn32)c(C)c1 (stereo not drawn)	2.7	/
O=C(NCCO)c1ccc2nc3c4ccccc4c4ccccc4c3nc2c1	/	8.2*
Cc1cn[nH]c1	/	1.2
CCOC(=O)C1CN(C(C)(C)C)C(=O)C1=O (stereo not drawn)	-0.18	/
Cc1cc(=O)oc2cc(OC(=O)CCCOc3ccc(Cl)cc3Cl)ccc12	/	-3.6
CCCCCN[C@H]1CS(=O)(=O)C[C@@H]1S(=O)(=O)c1ccc(OC)cc1	-0.55	-0.51
COC(=O)c1cccc2c1N[C@@H](c1cc3c(cc1Br)OCO3)[C@H]1CC=C[C@@H]21	0.93	1.3
O=C(C1CC(=O)N(c2cccc(-c3noc(C4CCC4)n3)c2)C1)N1CCN(c2ccccc2F)CC1 (stereo not drawn)	1.2	/
O=C(CSc1nnc(CNC(=O)c2ccco2)o1)NCc1ccco1	0.54	-0.07
CC(C)CCNS(=O)(=O)c1cccc2cccnc12	/	0.65
Cc1nc(-c2ccc(C)c(S(=O)(=O)Nc3ccccc3)c2)cs1	0.47	/
Cn1nc(-c2ccc(Cl)cc2)cc1NS(=O)(=O)c1cccc2nonc12	/	0.75
O=C(COc1ccccc1)OCc1cc(=O)n2nc(C3CC3)sc2n1	0.86	/
O=C(CSc1nnc(SCC(=O)Nc2cccc3ccccc23)s1)Nc1cccc2ccccc12	/	-1
c1csc(-c2noc(CSc3nc4ccccc4[nH]3)n2)c1	-1.1	1.1
CCCOC(=O)CSc1n[nH]c(=O)[nH]c1=O	2.1	1.1
CCC1CCCCN1C(=O)Cn1c(C(=O)OC)cc2occc21 (stereo not drawn)	1.9	-0.83
COCCN1C(=O)c2ccccc2C(C(=O)NCC2CCCO2)C1c1cn(C)c2ccccc12 (stereo not drawn)	/	-1.3
Cn1cccc1Cc1nnc(SCC(=O)Nc2ccc(F)cc2F)n1C	0.79	-0.92
O=C(NCc1ccc2c(c1)OCO2)c1nnc(-c2ccncc2)o1	0.7	-2.2
C=CCN(C(=O)Cn1ncc2c3ccccc3n(CCC)c2c1=O)c1ccccc1	-0.44	/
COc1cc(OC)c(NS(=O)(=O)c2cc3[nH]c4c(c3cc2C)C(=O)CCC4)cc1Cl	-0.65	/
COC(=O)c1sc(N2C(=O)c3oc4cc(C)c(C)cc4c(=O)c3C2c2ccccc2F)nc1C (stereo not drawn)	-0.19	-0.22
Oc1ccc(Br)c(C(Nc2ccccn2)c2ccc3cccnc3c2O)c1 (stereo not drawn)	/	0.15
COc1ccc(OC)c(CNc2ncnc3c2nc2n3CCCCC2)c1	0.26	/
CNC(=O)c1ccccc1Br	/	-1.1
O=C(c1ccc(-c2ccccc2)cc1)N1N=C(c2ccccc2)CC1(O)C(F)(F)F (stereo not drawn)	/	-0.35
C=CCOC(=O)C1=C(C)NC(SCC(N)=O)=C(C#N)C1c1ccc(Cl)cc1 (stereo not drawn)	/	-0.26
CCCN(CCS(=O)(=O)N1CCNCC1)S(=O)(=O)c1ccccc1	2.2	/
CCC(SC1=Nc2ccccc2C2=NC(C)C(=O)N12)C(=O)Nc1ccccc1 (stereo not drawn)	-2.1	/
CCOc1ccc(Nc2ncnc3c2cnn3-c2ccccc2)cc1	1.3	-0.67
Cc1cc(=O)[nH]c(SCC(=O)N(c2ccccc2)c2ccccc2)n1	-0.47	-1.7
c1ccc(C(c2ccccc2)N2CCN(c3ncnc4c3cnn4-c3ccccc3)CC2)cc1	0.78	-1.2
O=C(c1cc2c(s1)-c1ccccc1SC2)N1CCN(c2ncccn2)CC1	/	-0.71
CCOC(=O)c1cc(-c2ccc(S(=O)(=O)N3CCC(c4ccccc4)C3)s2)on1 (stereo not drawn)	0.46	/
CC1(C)CC(=O)c2cc(C(=O)Nc3ccc(F)cc3)c(=O)[nH]c2C1	-0.66	0.58
O=S(=O)(c1ccc(Cl)cc1)c1nc(/C=C/c2ccccc2)oc1N1CCOCC1	/	0
Cc1nc(CCNC(=O)C2CCN(C(=O)c3cccs3)CC2)cs1	1.3	/
Cn1cnc2c(C(=O)O)nn(-c3cccc(Cl)c3)c2c1=O	0.09	-0.35
Cc1ccc(Nc2c3c(nc4ncnn24)CCC3)cc1C	0.64	/
CC(C)CC(=O)Nc1cccc(OCc2cc(=O)n3nc(C4CC4)sc3n2)c1	-1.3	-1.5
CCOc1ccc(/C(O)=C2/C(=O)C(=O)N(CCCOC)C23C(=O)N(C)c2ccccc23)cc1 (stereo not drawn)	-1.9	-3
O=c1c(S(=O)(=O)c2ccc(Cl)cc2)cn(Cc2ccccc2)c2ccc(F)cc12	-1.2	-3.2
CS(=O)(=O)O[C@@H]1C(=O)c2ccccc2O[C@H]1c1ccc(Br)cc1	/	-1.4
CN(C)c1cc(NNS(=O)(=O)c2cccc(C(F)(F)F)c2)nc(N(C)C)c1C#N	/	0.15

Entries of single compounds from above. Order of values: HIV TAR-Tat | CDC25B CDK2 inh
Record of `Cc1ccc(Nc2c3c(nc4ncnn24)CCC3)cc1C` : 0.64 | /
Record of `O=c1c(S(=O)(=O)c2ccc(Cl)cc2)cn(Cc2ccccc2)c2ccc(F)cc12` : -1.2 | -3.2
Record of `Cn1cnc2c(C(=O)O)nn(-c3cccc(Cl)c3)c2c1=O` : 0.09 | -0.35
Record of `CCOc1ccc(/C(O)=C2/C(=O)C(=O)N(CCCOC)C23C(=O)N(C)c2ccccc23)cc1` (stereo not drawn) : -1.9 | -3
Record of `CC(C)CC(=O)Nc1cccc(OCc2cc(=O)n3nc(C4CC4)sc3n2)c1` : -1.3 | -1.5

The list goes on:
SMILES	HIV TAR-Tat	CDC25B CDK2 inh
COCCCNC(=O)c1sc2nc3n(c(=O)c2c1C)CCC3	3	/
Cc1cc(C)n(C(=O)CNC(=O)c2cccs2)n1	/	-0.36
Cc1nc(CC(=O)Nc2nncs2)cs1	0.7	0.67
COc1cc(C2c3c(-c4ccccc4O)n[nH]c3C(=O)N2CCO)ccc1O (stereo not drawn)	-0.04	-2.6
O=C(NC1CCCC1)c1cccc(N2CCCS2(=O)=O)c1	1.1	/
Cc1ccc(C)c(NC(=O)C2Sc3nnc(C)n3NC2c2ccccc2)c1 (stereo not drawn)	-0.1	-1.7
O=S1(=O)C[C@H](NC2CCCC2)[C@@H](S(=O)(=O)c2cccs2)C1	-3.7	0.17
COc1ccc(C(=O)NNC(=O)C2C3C=CC(C3)C2C(=O)O)cc1 (stereo not drawn)	/	-1.7
CCc1[nH]c(=O)c(C#N)cc1C(=O)OC	0.37	-1
Cc1nn(-c2ccccc2)nc1C(=O)NC(=O)N1CC(C)OC(C)C1 (stereo not drawn)	/	-0.46
O=S(=O)(c1ccc2[nH]c3c(c2c1)CCCCC3)N1CCCC1	2	/
Cc1[nH]nc(-c2ccc(S(=O)(=O)Nc3ccc(F)c(Cl)c3)s2)c1C	-0.81	/

Arranged by molar mass (descending): some entries from above
SMILES	HIV TAR-Tat	CDC25B CDK2 inh
CCOC(=O)c1cc(-c2ccc(S(=O)(=O)N3CCC(c4ccccc4)C3)s2)on1 (stereo not drawn)	0.46	/
CC(C)Oc1ccc(-c2nonc2NC(=O)COc2ccc(C(C)(C)C)cc2)cc1	2.2	-1.4
O=S(=O)(c1ccc2[nH]c3c(c2c1)CCCCC3)N1CCCC1	2	/

Remaining list, next part
SMILES	HIV TAR-Tat	CDC25B CDK2 inh
CC1=C(c2ccc(C)cc2)S(=O)(=O)N(Cc2ccc(C(=O)NCC3CCCO3)cc2)C1=O (stereo not drawn)	-0.21	/
COc1cc(C2CC(c3c(O)n(C)c(=O)n(C)c3=O)=Nc3ccccc3S2)ccc1O (stereo not drawn)	1.2	-1.7
COc1ccc(C(=O)Cn2cnc3c(C#N)c4n(c3c2=O)CCCCC4)cc1	1.1	-0.86
CCOc1c(Nc2ccc(Br)cc2F)c(=O)c1=O	0.56	/
CN(C)c1ccc(C(CNS(=O)(=O)c2ccccc2)N2CCc3ccccc32)cc1 (stereo not drawn)	1.1	/
COc1cccc(C[C@H]2NC[C@H](O)[C@H]2OC(C)=O)c1	3.8*	/
CCOc1ccc(/C(O)=C2\C(=O)C(=O)N(c3nccs3)C2c2ccc(OC)cc2)cc1 (stereo not drawn)	1.9	-0.78
CCn1c(=O)c2cc[nH]c2n(CC)c1=O	0.9	-1.2
CC1CCCN(CCCNC(=O)C(=O)Nc2ccc3nc4n(c(=O)c3c2)CCCCC4)C1 (stereo not drawn)	/	0.26
Cc1ccc(C)c(NS(=O)(=O)c2ccc3c(c2)S(=O)(=O)N=CN3)c1	-0.22	/
COC(=O)CN1C(=O)C2CCCN2c2ncc(Cl)cc21 (stereo not drawn)	0.12	-1.4
